Source: PubChem BioAssay
CSC inhib: cancer stem cell viability inhibitors, primary screen, luminescence; 1.1% of 300,000 active; AID 2717, 2010; inhibition, % at 7.5 µM; cancer stem cell-like cells viability;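 active = mean at 75% or more and at least half the replicates too; inconclusive = mean and replicates disagree; tested in HMLE shEcad cells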;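 note: 0% = median of negative and 100% = median of positive control wells; the first replicate is given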
Yeast UUG start: modulators of yeast start codon fidelity, primary screen, whole organism, S. cerevisiae, single point, plate reader; S. cerevisiae UUG-firefly luciferase reporter, luminescence/redox ratio; activity score, % at 18.7 µM; 0.13% of 350,000 active;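 active = replicate mean at a twofold rise or more, about +100% in these data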;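 note: firefly luciferase made from a UUG start codon reports start codon fidelity; reporter light over untreated wells divided by growth signal over untreated wells; some hits fall short of that in this replicate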
PABP FP inh: PABP poly(A) RNA binding inhibitors, primary screen, biochemical, fluorescence polarization, uHTS. 1% of 290,000 active. inhibition, % at 35 µM;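 active = 50% or more with normal probe brightness, or confirmed in later tests; inconclusive = above 50% with abnormal brightness, or retests that disagree; inactive = below 50% or failed in later tests; about a fifth of its hits are not listed in these tables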;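 note: calls also rest on retests at 20 µM and on dose response follow-up; controls were probe without protein and protein plus probe with vehicle; some compounds called inactive have numbers as strong as hits; many hits fall short of the cut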
Target sequence (P11940 whole entry, looked up): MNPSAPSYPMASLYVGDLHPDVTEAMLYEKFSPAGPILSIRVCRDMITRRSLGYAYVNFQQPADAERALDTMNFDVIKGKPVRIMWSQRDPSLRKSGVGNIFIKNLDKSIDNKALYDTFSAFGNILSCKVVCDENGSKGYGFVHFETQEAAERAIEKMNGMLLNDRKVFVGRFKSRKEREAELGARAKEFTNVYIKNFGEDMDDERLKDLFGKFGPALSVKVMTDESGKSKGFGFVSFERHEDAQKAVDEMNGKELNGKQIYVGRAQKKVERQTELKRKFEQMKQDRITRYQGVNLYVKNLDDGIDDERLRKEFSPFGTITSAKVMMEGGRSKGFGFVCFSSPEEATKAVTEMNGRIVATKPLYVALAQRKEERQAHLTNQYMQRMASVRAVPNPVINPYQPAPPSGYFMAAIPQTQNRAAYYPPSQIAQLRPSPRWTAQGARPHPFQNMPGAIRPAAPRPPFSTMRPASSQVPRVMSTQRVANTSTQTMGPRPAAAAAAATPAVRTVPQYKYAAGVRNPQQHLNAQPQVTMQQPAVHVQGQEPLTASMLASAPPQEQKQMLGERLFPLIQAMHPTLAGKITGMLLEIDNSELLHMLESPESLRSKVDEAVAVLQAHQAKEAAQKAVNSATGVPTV
HIV Env fusion: inhibitors of HIV-1 Env-driven cell-cell fusion, primary screen, HeLa-JRFL effector, CEM21 target cells, luciferase | inhibition, % at 12.3 µM | 1.1% of 360,000 active | AID 651610, 2012;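 active = mean replicate inhibition score of at least 50 and every replicate individually at or above 50; inconclusive = only one of the two criteria met; inactive = mean below 50 and not all replicates reaching 50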;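 note: 0% = plate neutral controls and 100% = maraviroc near 300 nM; one replicate is shown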
Rce1 inh: yeast Rce1p protease inhibitors, primary screen, biochemical, fluorescence, cell-free homogeneous; CAAX prenyl protease 2 (Saccharomyces cerevisiae (strain ATCC 204508 / S288c)), Q03530; 0.27% of 290,000 active; calls only; yeast membranes, quenched prenylated peptide cleavage fluorescence;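 active = fall in fluorescence gain of 50% or more versus controls, with final raw signal at or below 3038400; inconclusive = same 50% fall but final raw signal above 3038400; inactive = fall in fluorescence gain under 50%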;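 note: plate controls were neutral control wells for no effect and wells lacking membranes for full effect; tested at 10 µM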
Target sequence (Q03530 whole entry, looked up): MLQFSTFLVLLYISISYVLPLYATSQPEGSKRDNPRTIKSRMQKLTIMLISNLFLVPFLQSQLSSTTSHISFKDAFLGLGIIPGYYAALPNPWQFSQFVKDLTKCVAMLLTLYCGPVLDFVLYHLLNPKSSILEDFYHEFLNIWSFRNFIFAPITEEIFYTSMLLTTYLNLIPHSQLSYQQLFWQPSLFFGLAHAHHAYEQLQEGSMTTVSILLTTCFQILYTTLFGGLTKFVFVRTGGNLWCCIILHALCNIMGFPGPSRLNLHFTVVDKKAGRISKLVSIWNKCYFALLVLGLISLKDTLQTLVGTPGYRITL
eIF4H inh: human eIF4H binding inhibitors, primary screen, translation initiation inhibitor project, biochemical, uHTS, fluorescence polarization; 0.94% of 290,000 active; inhibition, % at 35 µM; AID 2012, 2009; Eukaryotic translation initiation factor 4H (Homo sapiens), Q15056; eIF4H fluorescence polarization binding assay;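 active = 50% or more with normal probe brightness, or confirmed in later tests; inconclusive = above 50% with abnormal brightness, or retests that disagree; inactive = below 50% or failed in later tests; about a fifth of its hits are not listed in these tables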;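 note: calls also rest on retests at 20 µM and on dose response follow-up; 0% = protein and probe with vehicle and 100% = probe without protein; strong numbers were not always called active; many hits fall short of the cut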
MT1-MMP act inh: blockers of MT1-MMP proenzyme processing, primary screen, HT1080 RFP-PRO-GFP cells, GFP/RFP fluorescence | Matrix metalloproteinase-14 (Homo sapiens), P50281 | GFP/RFP ratio fluorescence, overnight; percent of plate control window, DMSO zero | GFP/RFP ratio change, % at 20 µM | 0.061% of 360,000 active;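 active = GFP/RFP ratio change of at least 30% with cell ATP level not reduced by more than half and red fluorescence within 50% of control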; note: strong numbers were not always called active
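Assay system: HT1080 RFP-PRO-GFP cells | Dosing: 20 µM single dose, 1% DMSO | Incubation: Cells overnight before dosing, compound overnight, 37 °C, 5% CO2 | Evaluation: GFP/RFP fluorescence ratio | Control set: DMSO-only wells and HT1080 RFP-L50D-GFP cell wells as references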
eIF4H inh retest: recorded beside eIF4H inh, whose call it bears; inhibition, %; compound at 20 µM; confirmation average;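 mean of two retest wells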
PABP FP inh retest: further read-out of PABP FP inh, marked with its call; inhibition, %; compound at 20 µM; confirmation repeats;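 mean of two retest wells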
MT1-MMP act inh RFP: second read-out of MT1-MMP act inh, no call of its own (marks repeat the call); RFP signal change, %; measured here: RFP expression control read;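 0 = vehicle wells; hits needed this value within 50% of zero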
The depositor's hits bear a star; i = inactive; ? = inconclusive; . = not tested or not shown; & = joins results of further samples.

The first two records as a preview:
SMILES | CSC inhib | Yeast UUG start | PABP FP inh | HIV Env fusion | Rce1 inh | eIF4H inh | MT1-MMP act inh | MT1-MMP act inh RFP | others
COc1ccc(C(=O)Nc2ccc(C)cc2C(=O)c2ccccc2)cc1 | -3 | . | 4 | 26 | i | 3 | -6 | -7
COc1cc(NC(=O)CSc2nnc(-c3ccncc3)n2C2CCCCC2)ccc1NC(=O)c1ccco1 | -3 | -9 | 1 | . | . | 0 | 9 | 11

Main list, previewed entries included:
SMILES | CSC inhib | Yeast UUG start | PABP FP inh | HIV Env fusion | Rce1 inh | eIF4H inh | MT1-MMP act inh | MT1-MMP act inh RFP | others
COc1ccc(C(=O)Nc2ccc(C)cc2C(=O)c2ccccc2)cc1 | -3 | . | 4 | 26 | i | 3 | -6 | -7
COc1cc(NC(=O)CSc2nnc(-c3ccncc3)n2C2CCCCC2)ccc1NC(=O)c1ccco1 | -3 | -9 | 1 | . | . | 0 | 9 | 11
CCCOc1ccc(-c2nc(C#N)c(N3CCc4ccccc4C3)o2)cc1 | -1 | -6 | -9 | . | i | -8 | 1 | 2
CC(C)C(NC(=O)c1c(F)cccc1F)C(=O)N1CCN(c2ccccc2F)CC1 (centres undefined) | -10 | -8 | -6 | -14 | i | 2 | 0 | -3
CC1(C)CC(=O)c2cn3c(nc2C1)nc1ccccc13 | 3 | -21 | 6 | -116 | i | -4 | 4 | 1
CCC(=O)c1ccc(N2CCN(C(=O)COc3ccc(F)cc3)CC2)c(F)c1 | -7 | -9 | 2 | . | i | -1 | 21 | -10
CC(=O)N/C(=C\c1ccccc1)C(=O)OCC(=O)NC(=O)c1ccccc1 | -4 | . | . | -8 | i | . | 1 | 4
Fc1cc2nccnc2cc1N1CCSCC1 | -14 | 1 | 1 | -14 | i | -12 | 5 | 12
CCOC(=O)Nc1ccc2c(c1)C(=NNC(=S)NC)c1ccccc1-2 | . | -15 | . | -11 | . | . | 6 | -2
CC1=C(C(=O)Nc2ccccc2)C(c2ccc(C)o2)n2c(s/c(=C\c3ccco3)c2=O)=N1 (centres undefined) | . | 4 | 101* | -274 | i | 84* | 4 | 0
CCCCOC(=O)n1c(SCC(=O)N(CC)CC)nc2ccccc21 | -9 | . | -1 | 1 | i | -4 | 4 | -5
O=C(Nc1ccc(F)cc1)c1ccc2ncsc2c1 | . | -17 | -1 | -37 | i | 0 | -2 | -3
O=C(NCc1ccccn1)c1cc2cc(Br)ccc2oc1=O | -3 | . | 3 | . | i | -2 | 2 | 9
COc1cccc(-c2nn(-c3ccc(C)cc3)cc2C(=O)N(C)CC(=O)Nc2cccc(F)c2)c1 | 42 | 0 | . | . | . | . | 1 | -5
CCOc1ccc(NC(C)=O)cc1N | -3 | -10 | . | . | . | . | 4 | 8
CCN(CC)c1nc(Oc2ccc(=O)[nH]n2)nc(N2CCOCC2)n1 | -8 | . | -1 | 15 | i | 4 | 4 | 9
COc1ccc(CN2C(=O)C(CC(=O)NCc3cccs3)CC(C(=O)N3CCOCC3)=C2C)cc1 (centres undefined) | . | -15 | . | 15 | . | . | 4 | 7
O=C(CSc1ccc(-c2ccccn2)nn1)NC1CCCC1 | -14 | . | -2 | -7 | i | 8 | 3 | 1
N#CCC(=O)Nc1ccc(C(=O)OCC(=O)NNC(=O)c2cccs2)cc1 | -18 | -20 | . | . | i | . | -8 | -1
O=[N+]([O-])c1ccccc1S(=O)(=O)NCCc1ccncc1 | 8 | -13 | -2 | 9 | i | 1 | -2 | 1
Cc1cc(N2CCN(c3ccccc3)CC2)nc2ccccc12 | 54 | -16 | 8 | -8 | i | -4 | -2 | -2
COc1ccc(C(=O)/C=C/c2ccc(OC)c(COc3ccc(F)cc3)c2)cc1 | 26 | -6 | -2 | . | i | 6 | -4 | -11
N/C(=N\OC(=O)Cc1ccc([N+](=O)[O-])cc1)c1ccccn1 | . | . | 6 | -20 | i | -19 | 0 | -3
CCN(CC)C(=O)c1cccc(-c2csc(C(C)(O)c3cccc(F)c3)n2)c1 (centres undefined) | . | -12 | . | 35 | . | . | 0 | -24
COc1ccc(C(=O)NCc2ccccc2C)cc1S(=O)(=O)NC1CCCC1 | 1 | -7 | . | 3 | . | . | -6 | -4
Cc1ccc(CSc2nc3nc(C)cc(C)c3c(=O)[nH]2)cc1 | 13 | -16 | -7 | -5 | i | -4 | 0 | 1
COC(=O)C1=C(C)N(Cc2ccccc2)C(=NCCCCO)N[C@H]1c1ccccc1 | -6 | . | 84* | . | i | 28 | . | . | eIF4H inh retest=10;PABP FP inh retest=99*
CC(C)OC(=O)Cc1nc2sc(-c3ccccc3)cc2c(=O)[nH]1 | -11 | 0 | -5 | -65 | i | 2 | -29 | 0
CC(=O)N1CCN(C(=O)c2cc(S(=O)(=O)N(C)c3ccc(F)cc3)ccc2Cl)CC1 | -7 | -5 | . | 7 | i | . | 1 | -5
Cc1ccc(-n2ncc3c2CC(C)(C)CC3NC(=O)CCn2cncn2)cc1 (centres undefined) | -5 | -5 | -8 | 2 | i | -7 | -1 | -1
COc1ccc(Cl)cc1Cn1c(C)c(C(=O)NCc2cccc(Cl)c2)sc1=O | . | -17 | . | -17 | . | . | -3 | -8
CCN(CC)CCCNc1oc(-c2ccc(OC)c(OC)c2)nc1C#N | 2 | . | -10 | . | ? | -6 | 1 | 0
Cc1c(-c2cccs2)[n+](=O)c2c(n1[O-])CCC2 | 7 | -11 | -9 | -21 | i | 8 | -9 | -6
Cc1ccccc1/C=N/NC(=O)Cn1nnc(N)n1 | -16 | -9 | 2 | . | i | -1 | 3 | 7
COc1ccc(C(=O)Nc2ccc(/C(C)=N/NC(=O)c3ccccc3O)cc2)cc1OC | 9 | -7 | 5 | -5 | i | 6 | 8 | 5
Cc1ccc(S(=O)(=O)N2CCN(CC(O)c3ccccc3)CC2)cc1C (centres undefined) | -3 | 3 | 1 | 8 | i | -10 | 2 | -2
CC(C)(C)N1CC23CCC(C[C@@H]2C1=O)O3 (some centres undefined) | -4 | -15 | . | -1 | i | . | 1 | 1
CCOC(=O)C1=C(c2ccccc2)NC(=O)NC1c1cc(Cl)c(O)c(OC)c1 (centres undefined) | 4 | . | 0 | 7 | i | 3 | -2 | 2
O=C(CNC(=O)c1ccc(Br)o1)NC1CCCCCC1 | -7 | -4 | . | -20 | i | . | -3 | 3
O=C(Nc1ccc(Cl)cc1C(=O)Nc1ccccn1)c1ccco1 | -20 | -15 | -2 | -80 | i | 3 | -7 | -5
COc1ccc(F)cc1CN1CCN(CC(=O)Nc2ccccc2C(=O)NC2CC2)CC1 | 5 | -14 | . | . | . | . | -3 | 3
COc1ccc(-c2[nH]ncc2-c2nc(C)cs2)c(O)c1 | -4 | . | -12 | 3 | . | -7 | 4 | 3
O=C(NCc1ccc2c(c1)OCO2)c1cccc([N+](=O)[O-])c1 | -5 | . | -4 | . | i | 2 | 0 | 0
Nc1cc(-c2ccccc2)nn1S(=O)(=O)c1ccc(F)cc1 | -20 | -18 | -2 | 79* | i | 2 | 2 | -28
CN(CCc1ccccc1)C(=O)c1cccc(NC(=O)Cc2cccc(NC(=O)C3CCCN(C(=O)C4CC4)C3)c2)c1 (centres undefined) | . | -3 | . | 20 | . | . | 0 | -8
O=C(NC(=S)Nc1ccccc1Cl)C1CC1 | -3 | -18 | 7 | -23 | i | 2 | 2 | 0
CCOC(=O)C1(CCCc2ccccc2)CCN(C(=O)c2ccoc2)CC1 | 0 | 5 | -7 | 11 | i | 5 | 1 | -2
O=C(CN1C(=O)S/C(=C\c2ccc(-c3cc(C(=O)O)ccc3Cl)o2)C1=O)Nc1ccc2c(c1)OCO2 | -14 | -1 | 38* | -34 | i | 68* | 2 | 4 | eIF4H inh retest=70*;PABP FP inh retest=75*
COc1ccc(C)cc1NC(=O)CN1CCN(S(=O)(=O)c2ccc(Br)cc2)CC1 | -6 | -3 | 0 | . | i | -2 | -3 | -6
NC(=O)NCc1ccccc1Cl | -4 | . | -6 | 12 | . | 8 | -2 | -1
O=C(CCc1nc(-c2ccccc2F)no1)NCCc1ccccc1Cl | -2 | -15 | -2 | . | i | 3 | -1 | -4
Cc1ccccc1CCNC(=O)c1ccc(Cl)c(S(=O)(=O)N2CC(C)OC(C)C2)c1 (centres undefined) | . | -5 | . | 59* | . | . | -3 | -28
CC(=O)NCCc1nc2cc(NC(=O)c3ccccc3C)ccc2n1C | -2 | -29 | 1 | 6 | i | -13 | 2 | 0
CCn1c(SCC(=O)Nc2ccc3c(c2)OCCO3)nnc1-c1cccs1 | 9 | -9 | 5 | 5 | i | 14 | 5 | -2
Cc1ccc(P(=O)(OCCN2CCOCC2)C(C)(C)C)o1 (centres undefined) | -5 | -19 | -2 | . | i | -8 | 6 | 2
COc1cc(C2C(C#N)=C(N)Oc3c2c(-c2ccccc2)nn3-c2ccccc2)cc(OC)c1OC (centres undefined) | 25 | . | 5 | -53 | i | -2 | 4 | -21
CC(C)C(c1nnnn1CCc1ccccc1)N1CCSCC1 (centres undefined) | 12 | . | -2 | -1 | i | 8 | 0 | 0
Cc1ccc(S(=O)(=O)N(CCC(=O)Nc2ccc(OC(F)(F)F)cc2)c2ccccc2)cc1 | 55 | . | -9 | 3 | i | -1 | -4 | 2
Cc1ccccc1/C=C\c1nc2ccccc2c(=O)[nH]1 | 43 | . | 0 | -146 | i | 24 | -4 | -9
CCOC(=O)c1[nH]c2ccccc2c1NC(=O)COC | -2 | -15 | 1 | -108 | i | -5 | 0 | 5
(list continues)
SMILES | CSC inhib | Yeast UUG start | PABP FP inh | HIV Env fusion | Rce1 inh | eIF4H inh | MT1-MMP act inh | MT1-MMP act inh RFP | others
Cn1nc(C(C)(C)C)c([N+](=O)[O-])c1C(=O)NC1CCCCC1 | -9 | -18 | -4 | 13 | i | 1 | 3 | 2
CCc1nc2c(c(=O)c3ccccc3n2C)c(=O)n1CCc1ccc(OC)cc1 | -13 | . | 1 | . | i | 5 | . | .
O=C1CCN(Cc2ccc(O)cc2)CCN1CCO | 10 | -6 | 8 | -29&-2 | i | 8 | 1&5 | -2&5
O=C(CN1CCCC1)Nc1c2c(cc3c1CCC3)CCC2 | -8 | . | 5 | -2 | i | 63 | 2 | 3 | eIF4H inh retest=-3;PABP FP inh retest=-2
O=C(c1ccc(Cl)c(Cl)c1)N1CCC(=O)N(C(COCc2cccc(Cl)c2)Cc2ccccc2)CC1 (centres undefined) | 45 | -4 | 8 | 91* | i | 1 | -7 | -14
Clc1ccc2nc(CN3CCCc4ccccc43)cn2c1 | -2 | -28 | 51 | . | i | 33 | -11 | 0 | eIF4H inh retest=4;PABP FP inh retest=9
O=C(Oc1ccc2c(c1)OCC2=O)c1ccc(Cl)cc1 | -17 | -1 | 12 | 9 | i | -3 | 0 | 3
CCCNC(=O)Cn1cccc1C(=O)c1ccccc1 | 0 | -10 | -4 | . | i | 4 | -1 | 0
Cn1nnc2cc(C(=O)N3CCN(c4ccccn4)CC3)ccc21 | . | -7 | 3 | -1 | i | 0 | 4 | 1
NC(=O)N1CCN(CCCN2c3ccccc3Sc3cc(Cl)ccc32)CC1 | . | -9 | . | -27 | . | . | -2 | -8
